# Assay outcomes: PubChem BioAssay, several laboratories
# Autofluor counter – compound fluorescence in toxin protease inhibitor counterscreen; compound autofluorescence counterscreen, microsphere flow cytometry; hits give high values; fluorescence intensity (no concentration beside the values); actives 3.1% (n = 360,000); AID 624483;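 active = at least 3 SD above the mean of all compounds, about 16000 in these data; inconclusive = too few beads counted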;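 note: 100 nL of 1 mM stock went into each well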
# ugtP null kill – kills S. aureus RN4220 lacking UgtP; growth inhibition, % (no concentration beside the values); actives 0.54% (n = 330,000); S. aureus RN4220 ugtP deletion, OD600 growth, 16 h; some inactives read as strong as hits;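 active = z-score under -3 and OD600 up to 0.15 on both plates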;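 note: plate controls were untreated wells for no effect and antibiotic for full effect; wells of about 80 µL received 100 nL stock; the first replicate is given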
# PrP UTR inh – inhibition of PrP 5' UTR reporter expression. inhibition, % (test concentration not listed). actives 0.35% (n = 340,000). cell-based PrP 5' UTR mRNA reporter, plate reader;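 active = every replicate at 50% or more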;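 note: 0 = median of the neutral control wells; tested in H4 reporter cells; numbers are from one replicate; inactives centre near -14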
# Mtb hypoxia inh – inhibitors of hypoxia-regulated fluorescent reporter in Mycobacterium tuberculosis. AID 1159583. actives 0.1% (n = 300,000). M. tuberculosis hypoxia-regulated fluorescent reporter, fluorescence. fluorescence inhibition, % (no concentration beside the values);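 active = 35 to 45% if threefold the growth effect, above 45% if 1.5-fold the growth effect; inactive = the rest, general growth blockers included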;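 note: wells of about 50 µL received 100 nL stock; 0% = vehicle wells and 100% = reference inhibitor wells; whole bacteria with a GFP reporter of the hypoxia response; strong numbers were not always called active; many hits fall short of the cut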
# Sa RN4220 lethal – S. aureus RN4220 growth inhibition; actives 0.33% (n = 330,000); OD600, 16 h; inhibition, % (test concentration not listed);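 active = z-score of -3 or lower and OD600 up to 0.18 on both plates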;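 note: plate controls were untreated cells for no effect and reference antibiotic for full effect; stock transfer was 100 nL into about 80 µL; one replicate is shown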
# BJeLR viability – BJeLR cell viability loss; BJeLR (HRASV12) viability, CellTiter-Glo ATP luminescence, 48 h; reference of the scale not given here; inhibition, % (no concentration beside the values); actives 0.17% (n = 300,000);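 active = replicate mean above 50%; inconclusive = above 50% but judged a plate artefact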;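 note: 50 nL library stock added to about 25 µL; numbers are from one replicate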
# Mtb hypoxia inh growth – further read-out of Mtb hypoxia inh, marked with its call; growth inhibition, %; measured here: M. tuberculosis growth (absorbance);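 0% = vehicle and 100% = reference antibiotic; read after six days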
# Active calls of the source: *; ? = inconclusive; nt = not tested or not shown.
SMILES,Autofluor counter,ugtP null kill,PrP UTR inh,Mtb hypoxia inh,Mtb hypoxia inh growth,Sa RN4220 lethal,BJeLR viability
C#Cc1ccc(C(=O)Nc2cc(C(N)=O)ccc2N2CCOCC2)cc1,10424,-10,-7,4,10,1.5,1
C/C(=N\NC(=O)C(=O)Nc1c(C)n(C)n(-c2ccccc2)c1=O)c1ccncc1,4198,nt,-16,nt,nt,nt,4
COc1ccc(Nc2c3c(nc4ccccc24)CCCC3)cc1OC,2490,-2,-19,-4,-3,3.7,2
CCN(CC(=O)Nc1c(F)cccc1F)C(=O)CCC(=O)c1ccc(F)cc1,5870,3,-28,11,1,2.3,12
CCc1nc2ccccc2c(C(=O)OCC(=O)NCc2ccc3c(c2)OCO3)c1C,2127,-1,-14,-4,-3,-4.9,-10
COc1ccc(C2/C(=C(/O)c3ccccc3)C(=O)C(=O)N2c2ccccn2)cc1OC (stereo unspecified),4551,nt,-33,nt,nt,nt,-7
O=C(CN(Cc1ccccc1)C(=O)CCC(=O)Nc1ccccn1)NCc1ccc(F)cc1,3485,5,-16,-2,4,0.6,-6
COc1ccc(N(CN2C(=O)c3ccccc3C2=O)C(=O)C(C)C)cc1,4013,-3,-14,nt,nt,0.4,2
CN(C)c1ccc(NC(=S)c2ccc3ccccc3n2)cc1,5549,14,-33,3,3,0.0,0
CCOC(=O)N1CCC(NC(=O)C2CCN(Cc3nc(-c4ccc(CC)cc4)oc3C)CC2)CC1,6226,-7,-20,-3,13,-6.6,nt
O=C(COC(=O)CNC(=O)C1CCCCC1)Nc1ccc(F)c([N+](=O)[O-])c1,6603,2,-3,5,3,2.4,nt
C=CCNC(=O)C1=NN(c2c(F)c(F)cc(F)c2F)C(=O)CC1,3634,0,-4,-2,-1,3.6,2
Cc1cc(C)cc(OCc2ccc(C(=O)O)o2)c1,10857,-4,-29,1,0,5.3,2
O=C(NC1CCCCCCC1)NC1CCCCC1,3501,2,-71,nt,nt,0.0,6
O=C1C(=O)N(CC2CCCO2)C(c2ccccc2[N+](=O)[O-])/C1=C(/O)c1ccccc1 (stereo unspecified),3229,1,4,6,0,1.9,-5
Cc1cc(C)nc(SC2CCCCC2NS(=O)(=O)c2ccc(Cl)cc2)n1 (stereo unspecified),2400,-5,-23,3,11,9.1,-7
Cc1nccn1-c1c2c(c(C#N)c3nc4ccccc4n13)CCC2,nt,3,nt,nt,nt,-1.2,-2
O=C(CSc1nnnn1-c1ccccc1)Nc1ncc(Cc2cccc(Cl)c2Cl)s1,2241,-3,-20,4,1,3.7,-4
CCOC(=O)C1C(=O)NC(c2ccccc2)=NC1c1ccc(F)cc1 (stereo unspecified),2776,-4,-24,nt,nt,-2.2,7
Cc1ccc(Nc2nc(CSc3nnnn3-c3ccccc3)cc(=O)[nH]2)cc1,10341,-13,-24,-1,-4,6.4,-17
CCN(C(=O)COC(=O)CCCc1nc2ccccc2s1)c1c(N)n(Cc2ccccc2)c(=O)[nH]c1=O,2891,5,-16,4,2,5.5,nt
COc1ccccc1NC(=O)CN1CCN(CC(=O)Nc2ccccc2Cl)CC1,3967,12,-27,11,8,-4.2,0
COc1cc(C=NNC(=O)C2COc3ccccc3O2)cc(OC)c1OC (stereo unspecified),nt,10,nt,7,4,-0.1,nt
CCN(CC)c1nc2ccccc2n2cnnc12,23917*,-7,8,-2,0,1.9,-1
COC(=O)Cn1c(CCS(=O)(=O)c2ccc(Cl)cc2)nc2ccccc21,2227,2,-12,nt,nt,2.5,3
O=C(c1cc2c(s1)-c1ccccc1OC2)N1CCC2(CC1)OCCO2,10572,7,-88,6,7,2.0,9
Cc1ccc(C(=O)/C=C/c2cn(CN3CCN(C)CC3)c3ccccc23)cc1,22519*,-1,-72,9,17,10,5
COc1cc(NC(=O)CCc2nnc3ccc(N4CCCC4)nn23)cc(OC)c1OC,5753,9,-12,16,3,2.5,3
CCN(CC)C(=O)OCc1c(-c2ccccc2)ncc2ccccc12,4228,4,-45,13,11,7.3,nt
COc1ccccc1N1CCN(C(=O)C(C)N(c2ccccc2)S(C)(=O)=O)CC1 (stereo unspecified),21669*,-6,-15,13,9,1.5,-5
O=C(CSc1nc2ccccc2nc1N1CCCC1)Nc1ccc(F)cc1,5421,-23,-44,7,5,0.7,-7
COc1cc(C(=O)N2CCN(C/C=C/c3ccccc3)CC2)cc(OC)c1OC,7088,11,-24,5,1,5.3,3
COCCn1ccc2c(OCC(=O)NCc3ccccc3)cccc2c1=O,nt,2,-7,2,-7,0.8,21
COc1ccc(CNCc2cc(OC)ccc2OC)cc1,4362,3,-18,11,3,1.4,-1
CCNC(=S)N(CCc1c(C)[nH]c2ccc(Cl)cc12)Cc1ccco1,3186,41,-22,9,12,79,-2
CC(C)(C)OC(=O)CNC(=O)c1[nH]cnc1C(=O)NC(c1ccccc1)c1ccccc1,3805,3,-25,-3,1,3.8,7
CCOC(=O)c1nnn(-c2ccc([N+](=O)[O-])cc2[N+](=O)[O-])c1C,4477,37,-49,6,9,30,-6
CSCCC(NS(=O)(=O)c1ccc(Cl)cc1)C(=O)OCC(=O)NC1CCCCC1 (stereo unspecified),4768,-3,-15,-9,-3,3.4,-2
c1ccc(-n2ncc3c(NC4CCCCCC4)ncnc32)cc1,5491,9,-57,2,0,-1.1,-4
Cc1ccc(SCCC(=O)Nc2c(C)n(C)n(-c3ccccc3)c2=O)cc1,3717,1,-20,5,3,0.1,1
COc1cc(/C=C2/C(=O)NN(c3ccc(C)c(Cl)c3)C2=O)cc([N+](=O)[O-])c1O,4299,3,-6,5,1,6.0,4
Cc1ccc(Cl)cc1NS(=O)(=O)c1ccc2oc(=O)ccc2c1,4028,2,-2,-9,-2,8.7,-10
CCNC(=O)COc1cccc2ccccc12,21317*,-15,-21,0,11,17,2
Cc1ccc(N2CC(C(=O)OCC(=O)Nc3ccccc3F)CC2=O)cc1 (stereo unspecified),3345,7,-23,7,8,5.0,-2
S=C(NCC1CCCO1)N1CCN(c2ccccc2)CC1 (stereo unspecified),4336,-1,-13,-5,17,-3.6,-1
O=C(NCc1ccccc1)C(c1ccco1)N(C(=O)c1csnn1)c1ccccc1F (stereo unspecified),3668,1,-13,3,5,3.5,-9
O=C(O)CCCCCNC(=O)C(=O)C1C(=O)Nc2ccccc21 (stereo unspecified),5050,9,-19,10,10,3.3,-1
COc1ccccc1C(=O)CC(=O)C(=O)Nc1cccc([N+](=O)[O-])c1C,3736,19,-10,9,6,33,4

# Complete entries as entered above. Screens in order: Autofluor counter, ugtP null kill, PrP UTR inh, Mtb hypoxia inh, Mtb hypoxia inh growth, Sa RN4220 lethal, BJeLR viability
# COc1ccccc1C(=O)CC(=O)C(=O)Nc1cccc([N+](=O)[O-])c1C reads 3736, 19, -10, 9, 6, 33, 4
# c1ccc(-n2ncc3c(NC4CCCCCC4)ncnc32)cc1 reads 5491, 9, -57, 2, 0, -1.1, -4
# COc1cc(/C=C2/C(=O)NN(c3ccc(C)c(Cl)c3)C2=O)cc([N+](=O)[O-])c1O reads 4299, 3, -6, 5, 1, 6.0, 4
# Cc1ccc(N2CC(C(=O)OCC(=O)Nc3ccccc3F)CC2=O)cc1 (stereo unspecified) reads 3345, 7, -23, 7, 8, 5.0, -2
# S=C(NCC1CCCO1)N1CCN(c2ccccc2)CC1 (stereo unspecified) reads 4336, -1, -13, -5, 17, -3.6, -1

# Other results follow:
SMILES,Autofluor counter,ugtP null kill,PrP UTR inh,Mtb hypoxia inh,Mtb hypoxia inh growth,Sa RN4220 lethal,BJeLR viability
CSc1ccccc1OCc1cc(C(=O)NCC(C)(C)N2CCOCC2)no1,4425,-2,-4,1,-17,-4.2,4
COc1ccc(C(=O)N2CCC(C(=O)N3CCN(Cc4ccccc4)CC3)CC2)cc1,5822,11,-21,6,0,-0.5,1
COc1ccc(O)cc1,5638,5,-6,nt,nt,0.6,nt
Cc1ccccc1NCC(=O)c1ccc(Br)cc1,10088,7,-11,-1,-3,6.7,4
COC(=O)C1=C(C)NC(=O)NC1c1cccc(OC)c1OCc1ccccc1 (stereo unspecified),2000,-7,5,nt,nt,-0.2,-3
Cc1cc(C)c(C)c(OCc2nc(-c3cccnc3)no2)c1,21478*,-5,-15,5,12,3.1,-4
CN(CC(=O)Nc1cccc2c1CCCC2)S(=O)(=O)c1ccc(Br)cc1,4175,-5,-28,-2,-10,3.2,1
O=C(/C=C1\NC2(CCCC2)Cc2ccccc21)C(=O)NN=Cc1ccc(O)c(O)c1,nt,0,nt,11,2,6.0,nt
O=C(NC1CCCCCC1)c1cc2n(n1)C(C(F)(F)F)CC(c1ccco1)N2 (stereo unspecified),2952,-2,5,8,10,3.8,2
N#CC1=C(S)N(c2ccccc2)C2(CCCCC2)NC1=O,2506,2,-21,1,4,5.4,-7
CC(C)(C)c1cc(CCC(=O)NNC(=S)NC(=O)c2ccccc2)cc(C(C)(C)C)c1O,2653,89*,22,-24,10,64,10
O=C(NCCc1ccc(Cl)cc1)c1ccc(Br)s1,3610,3,-86,24,23,2.7,2
COc1ccc(C)cc1NC(=O)c1ccccc1NS(=O)(=O)c1ccc(Cl)s1,5266,71,-30,12,14,67,-3
COC(=O)c1ccc(NC(=O)C(C)Oc2ccccc2)cc1 (stereo unspecified),2812,nt,-8,nt,nt,nt,-12
S=c1[nH]ncn1NCc1cccc(Br)c1,nt,7,nt,13,-7,3.9,-17
CCOC(=O)c1c(CC(C)C)csc1NC(=O)COC(=O)c1cc(OC)c(OC)cc1[N+](=O)[O-],2515,18,-11,0,0,5.6,0
CCN(CC(=O)Nc1c(F)cccc1F)C(=O)C1CC(=O)N(CCc2ccc(OC)c(OC)c2)C1 (stereo unspecified),2750,6,-29,8,1,4.2,nt
Cc1nnc(SCC(=O)Nc2cc(S(=O)(=O)N3CCCC3)ccc2Cl)s1,4658,0,-4,4,2,6.8,5
COc1ccc(N2CCN(S(=O)(=O)CCNC(=O)C(C)Oc3ccccc3)CC2)cc1 (stereo unspecified),6632,6,-18,12,0,4.2,7
CCCn1c(C)cc(/C=C(\C#N)C(=O)OCC(=O)Nc2cccc(S(N)(=O)=O)c2)c1C,nt,7,-12,0,0,2.8,nt
CC(C)[C@H](NC(=O)c1ccccc1Cl)C(=O)Nc1ccc(S(=O)(=O)Nc2nccs2)cc1,4971,0,-1,5,12,5.3,nt
CC(C)Oc1cccc(-c2cc(C(=O)NC(=S)N(C)c3ccccc3C(=O)O)c3ccccc3n2)c1,2086,1,-5,10,4,6.2,-12
N=C1c2ccccc2CN1NC(=O)c1cccc(S(=O)(=O)N2CCCCC2)c1,2551,0,-10,-2,3,4.3,-5
COC(=O)C1=CO[C@@H](C)[C@@H]2CN3CC[C@@]4(C(=O)Nc5ccccc54)[C@@H]3C[C@H]12,3923,nt,0,nt,nt,nt,-7
CC(=O)c1sc2nc(-c3cccs3)ccc2c1N,7582,-16,-61,19,5,-1.1,-7
O=C(CCN1C(=O)/C(=C/c2ccccc2F)SC1=S)NC1C=CS(=O)(=O)C1 (stereo unspecified),5595,-6,-9,2,-1,7.4,-2
C/C(=N\NC(=O)C(C)Sc1ccccc1)c1ccc([N+](=O)[O-])cc1 (stereo unspecified),3135,nt,-3,nt,nt,nt,-5
Cc1ccc(NC(=O)c2ccc3c(c2)OCCO3)cc1,2445,9,-18,4,10,13,7
C/C(=N\O)c1ncc(C(F)(F)F)cc1Cl,4207,nt,-5,nt,nt,nt,-8
O=C(O)CSc1nc2c(c(=O)[nH]1)CCCC2,24867*,4,-11,5,6,-0.2,-5
Cc1cc(C)c(N2C(=NC(=O)CCCC(=O)O)SC3CS(=O)(=O)CC32)c(C)c1 (stereo unspecified),4290,-4,-21,17,9,6.9,0
CCCCCc1nc2c(c(=O)c3ccccc3n2C)c(=O)n1C1CCCCCC1,2970,100*,-10,-2,10,99*,1
O=C(CCNC(=O)c1ccccc1Cl)NCc1ccncc1,?,0,-11,2,0,5.1,-2
O=C(Cn1cc(C(=O)C(F)(F)F)c2cc(Br)ccc21)N1CCOCC1,2089,-3,-3,-27,-8,-1.6,5

# A few values from the results shown.
# `O=C(O)CSc1nc2c(c(=O)[nH]1)CCCC2` @ Autofluor counter = 24867*
# `Cc1cc(C)c(N2C(=NC(=O)CCCC(=O)O)SC3CS(=O)(=O)CC32)c(C)c1` (stereo unspecified) @ Autofluor counter = 4290
